HPGD inh: inhibitors of human 15-hydroxyprostaglandin dehydrogenase (HPGD). P15428. AID 894. purified HPGD, NADH fluorescence kinetic, PGE2 substrate. Potency, µM, without a hit: top-dose activity change, negative = inhibition, usual class: inhibitors. 150,000 tested, 4.3% active; active = well fitted inhibition curve with a large enough effect (not every such curve was filed as active); inconclusive = small, poorly fitted or top-dose-only effect, or another doubt; inactive = no such curve, though single readings can be large or run the other way;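 also: top concentration of the series not given in the record; plate controls included wells without enzyme; inactives centre near -10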
Target sequence (P15428 whole entry, looked up): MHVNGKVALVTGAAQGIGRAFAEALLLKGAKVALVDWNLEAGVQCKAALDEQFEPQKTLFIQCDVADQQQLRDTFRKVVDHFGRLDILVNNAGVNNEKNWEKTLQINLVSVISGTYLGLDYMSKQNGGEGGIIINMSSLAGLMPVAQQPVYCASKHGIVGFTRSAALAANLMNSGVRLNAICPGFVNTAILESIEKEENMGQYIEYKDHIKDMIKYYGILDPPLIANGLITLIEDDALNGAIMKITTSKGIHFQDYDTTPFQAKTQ
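NADH formation kinetics: reaction with 30 uM PGE2 and 1 mM NAD+ (final), 20 nM enzyme, Tris-HCl pH 8 with Tween 20, after 15 min compound preincubation at room temperature. Fluorescence change, last versus first of five reads.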
* = called active by the depositor; ? = inconclusive. % is scaled to controls: 0 for no effect and ±100 for the full control effect; potency is read from the fitted curve at half-maximal effect. Some of the compounds tested; count on the stated rates, not on these rows.

item	canonical_smiles	HPGD inh
1	COC1=C/C(=C/c2c(N)n3cc(C)sc3nc2=O)C=CC1=O	-12%
2	NC(=O)C1CCN(C(=O)C2c3ccccc3C(=O)N3CCc4ccccc4C23)CC1 (stereo unspecified)	-3%
3	O=C(Nc1cc2c3c(c1)C1CCCC1CN3CC1CCCC21)c1ccc([N+](=O)[O-])cc1 (stereo unspecified)	-5%
4	COCCNC(=O)C(c1ccc(O)cc1)N(Cc1ccco1)C(=O)CCC(=O)Nc1nccs1 (stereo unspecified)	-6%
5	CCN1C(=O)c2cccc3c(S(=O)(=O)Nc4ccccc4OC)ccc1c23	-9%
6	CC(C)CNC(=O)c1ccccc1NC(=O)/C=C/c1cccc([N+](=O)[O-])c1	-12%
7	COc1cc(Cn2c(=O)oc3ccc(C)cc32)ccc1OC(C)C	-4%
8	O=C(/C=C/c1ccco1)N1CCN(c2ncccn2)CC1	-17%
9	O=C(OCc1ccccc1F)c1ccc2c(c1)-c1ccccc1C2=O	-16%
10	O=C(Nc1ccc2nccnc2c1)c1cnccn1	-3%
11	Cc1ccc(C(NC(=O)C2CCCCC2)c2c(O)ccc3ccccc23)cc1 (stereo unspecified)	?
12	S=c1[nH]nc(COc2ccccc2)n1/N=C/c1cccnc1	14µM*
13	O=Nc1ccc(NO)cc1	-25%
14	COCCCNC(=O)CCSc1ccc(C)cc1	-23%
15	Cc1cccc2cc(CN(Cc3ccco3)C(=O)NC3CCCCC3)c(=O)[nH]c12	-7%
16	CCc1ccc(NC(=S)Nc2cccc(OC)c2)cc1	4%
17	O=C(CN(C1CCCCC1)S(=O)(=O)c1ccc(Cl)cc1)N1CCOCC1	-1%
18	Cc1ccc(-c2nc3cc(NC(=O)C(C)C)ccc3o2)cc1C	?
19	O=C(OCn1nnc2ccccc2c1=O)c1ccc(Br)o1	-14%
20	CN(c1ccccc1)S(=O)(=O)c1cc(C(=O)c2nccn2C)ccc1Cl	-10%
21	C=CCOC(=O)N[C@H](C[N+](=O)[O-])c1ccccc1	-11%
22	COC(=O)c1cccc(NC(=O)CN2CCN(c3ccc(OC)cc3)CC2)c1	-6%
23	c1ccc2c(c1)CC(N1CCN(c3cccc4c3OCCO4)CC1)C2	-11%
24	C[C@@H]1OC(OC2CC[C@@]3(C)C(CC[C@@]4(C)C3CC=C3C5CC(C)(C)CC[C@]5(C(=O)OC5OCC(O)[C@@H](O)[C@@H]5OC5O[C@@H](C)[C@H](O[C@H]6OC(CO)C(O)C(O)C6O)C(O)C5O)C(O)C[C@@]34C)C2(C)C)C(O)C(O)[C@H]1OC1OCC(O)C(O)[C@H]1O (stereo partly specified)	-5%
25	Cc1cc(O)cc(O)c1-c1onc(C(F)(F)F)c1-c1cscn1	-5%

The last 3 compounds of the section before lead into the next:
item	canonical_smiles	HPGD inh
23	c1ccc2c(c1)CC(N1CCN(c3cccc4c3OCCO4)CC1)C2	-11%
24	C[C@@H]1OC(OC2CC[C@@]3(C)C(CC[C@@]4(C)C3CC=C3C5CC(C)(C)CC[C@]5(C(=O)OC5OCC(O)[C@@H](O)[C@@H]5OC5O[C@@H](C)[C@H](O[C@H]6OC(CO)C(O)C(O)C6O)C(O)C5O)C(O)C[C@@]34C)C2(C)C)C(O)C(O)[C@H]1OC1OCC(O)C(O)[C@H]1O (stereo partly specified)	-5%
25	Cc1cc(O)cc(O)c1-c1onc(C(F)(F)F)c1-c1cscn1	-5%
26	O=C(O)c1ccc(NS(=O)(=O)c2cc(Cl)ccc2Cl)cc1O	?
27	OCc1csc(=Nc2ccccc2)n1-c1ccccc1	3%
28	CN(CC(=O)NC(=O)NCc1ccccc1)Cc1ccc(Cl)cc1	-7%
29	CCCn1c(SCC(=O)N2CCc3ccccc3C2)nc2c1c(=O)n(C)c(=O)n2C	-2%
30	COc1ccc(C(c2nnnn2C2CCCC2)N2CCC(C(N)=O)CC2)c(OC)c1 (stereo unspecified)	-6%
31	O=C(NCCN1CCOCC1)c1cc2sccc2n1Cc1ccc(Cl)cc1	16µM*
32	O=C(NCCSCc1ccccc1)c1ccc(C2SCC(=O)N2Cc2ccccc2)cc1 (stereo unspecified)	-20%
33	COc1ccc(CNC(=O)CCSc2nc(-c3ccc4c(c3)OCO4)cc(C(F)(F)F)n2)cc1	?
34	Cn1nnnc1SCC(=O)N1CCN(c2ccccc2)CC1	-8%
35	Cc1ccc(SCC(=O)Nc2cccc(C(=O)NC(C)(C)C)c2)cc1	-4%
36	O=[N+]([O-])c1ccccc1S(=O)(=O)N1CCCCC1	-5%
37	Cc1ccc(-c2c(C)n([O-])c3c([n+]2=O)CCC3)o1	-9%
38	N#Cc1ccccc1OCC(=O)OCC(=O)c1ccc2c(c1)NC(=O)CO2	-11%
39	O=C(NCCCN1CCN(c2ccccc2F)CC1)C1CC(=O)N(C2CCCC2)C1 (stereo unspecified)	0%
40	Cc1ccc(NC(=O)CN(c2ccccc2)S(=O)(=O)N(C)C)cc1	-2%
41	CC(c1ccco1)N(C(=O)CSc1ccc(Br)cc1)c1ccccn1 (stereo unspecified)	-9%
42	CCN(CC)S(=O)(=O)c1ccc(Cl)c(NC(=O)COC(=O)/C=C/c2cc(OC)c(OC)c(OC)c2)c1	?
43	CCCn1c(=S)[nH]c2cc(C(=O)NCC3CCCO3)ccc2c1=O (stereo unspecified)	-16%
44	COc1ccc(/C=N/NC(=O)CCn2c3ccccc3c3ccccc32)cc1O	-12%
45	COc1ccccc1/C=C/C(=O)OCC(=O)Nc1ccccc1Sc1ccccc1	?
46	Cc1ccsc1/C=N/NC(=O)Cc1cccn1C	?
47	COc1cccc(C(=O)N2CCN(Cc3ccco3)CC2)c1OC	-6%
48	CC(=O)C(Sc1nc(NC(C)(C)C)nc(N(C)C)n1)C(C)=O	-2%
49	COc1cccc(NC(=O)N2CCOCC2)c1	-2%
50	C/C(N)=C(/C#N)C(=O)COC(=O)COc1ccc(Cl)cc1	-7%

item	canonical_smiles	HPGD inh
51	COc1ccc(CCNC(=O)/C(C#N)=C2\N=C(NC(=O)c3cccs3)c3ccccc32)cc1	-8%
52	CCC(C)C(NC(=O)C1CCC(C)CC1)C(=O)NCc1cccnc1 (stereo unspecified)	-6%
53	CCOC(=O)C(Nc1ccc2ccccc2c1)C(=O)OCC	?
54	Cc1cc(NCCO)c2cc(O)ccc2n1	?
55	CCc1nnc(NC(=O)c2ccc3c(c2)C(=O)N(C(C)(C)C)C3=O)s1	-10%
56	Clc1ccc(Oc2cnns2)cc1Cl	-14%
57	Cc1cccc(N=C2NN=C(c3c[nH]c4ccccc34)CS2)c1	?
58	O=c1[nH]c2ccccc2nc1C(F)(F)C(F)F	?
59	NC(=O)C1CCN(C2CC(=O)N(c3cccc(F)c3)C2=O)CC1 (stereo unspecified)	0%
60	Cc1cc(C)nc(/N=C(\N)Nc2cccc([N+](=O)[O-])c2)n1	-16%
61	COC(=O)c1ccc(NC(=O)CSc2nnc(-c3ccccc3)n2C)cc1	-16%
62	COc1ccc(Br)cc1CNC(=O)C1CCN(S(=O)(=O)N2CCCC2)CC1	-7%
63	Cc1ccccc1S(=O)(=O)Nc1ncnc2scc(-c3ccccc3)c12	-1%
64	Cc1ccccc1-c1nnc(SCC(=O)NC2CCCCC2)o1	-13%
65	COC(=O)c1c(O)cc(C(C)(C)C)n(-c2ccccc2)c1=O	-6%
66	CC(=O)c1ccc(Sc2nnnn2-c2ccccc2)c([N+](=O)[O-])c1	-16%
67	CCc1ccccc1NC(=O)CSc1nnc(Cn2cnc3ccccc32)o1	-7%
68	O=C(CSc1nc(-c2ccccc2)cc(C(F)(F)F)n1)NCc1cccs1	-6%
69	CCN(CC)S(=O)(=O)c1cccc(C(=O)Nc2ccccc2C(=O)N2CCOCC2)c1	-7%
70	COc1ccc(NC(=O)COC(=O)Cc2ccc(-c3ccccc3)cc2)c(OC)c1	-1%
71	CCOc1ccc(NC(=O)C2CCN(C(=O)NCc3ccccc3)CC2)cc1	-7%
72	CC(C(=O)N1CCC(C(N)=O)CC1)N(c1ccc(Oc2ccccc2)cc1)S(C)(=O)=O (stereo unspecified)	-1%
73	COC(=O)[C@@]1(Cc2ccccc2)[C@H]2c3cc(C(=O)N(C)C)n(Cc4cc(C)n(C)n4)c3C[C@H]2CN1C(=O)c1ccccc1	-12%
74	OCCNCC1(O)C2CC3CC(C2)CC1C3 (stereo unspecified)	2%
75	Cc1ccc(Cl)cc1NC(=O)c1ocnc1C	-7%

item	canonical_smiles	HPGD inh
76	Cc1ccc2cc(CN(Cc3nnnn3Cc3ccco3)CC3CCCO3)c(=O)[nH]c2c1C (stereo unspecified)	-25%
77	CCCSc1cc(N2CCN(C)CC2)nc(-c2ccc(OC)cc2)n1	-19%
78	O=[N+]([O-])C1=CC=C2C(=NC3(CCCCC3)N2O)C1=NC1CCCCC1	-9%
79	Cc1ccccc1Cn1c2ccccc2c2cn[nH]c(=O)c21	-9%
80	COC(=O)c1ccc(C2CC(=O)NC3=C2C(=O)CCC3)cc1 (stereo unspecified)	-15%
81	CN1CCN(S(=O)(=O)c2ccc(NC(=O)c3ccc(F)cc3)cc2)CC1	0%
82	N#Cc1ccc(C(=O)Nc2nc(-c3cccs3)c(C(=O)C(F)(F)F)s2)cc1	3%
83	Cc1ccc(S(=O)(=O)N(C#N)c2nc(C)cc(C)n2)cc1	-28%
84	CCSc1nc(C)nc2c1oc1ccccc12	-10%
85	CCc1nc(NCCC(C)C)c(C#N)c2c1CCCC2	?
86	COc1ccccc1CN1CCC2(CC1)CCN(C(=O)c1ccncc1)CC2	-6%
87	COc1ccc(CC(=O)NCc2ccccc2Cl)cc1S(=O)(=O)N1CCOCC1	-10%
88	COc1cc2c(Cc3c4c5c(cc(OC)c(OC)c5c5c(OC)c(OC)ccc35)CCN4C)c3c4c(cc(OC)c(OC)c4c2cc1OC)CCN3C	?
89	NC1=NCc2ccccc21	2%
90	Nc1nc(Cl)cc(N2CCC(c3cc(-c4ccc(Cl)cc4)n[nH]3)CC2)n1	-6%
91	Cc1cccc(/C=C2/SC(=O)N(Cc3ccccc3Cl)C2=O)n1	-13%
92	Nc1ncnc2nc(SCc3ccccc3)[nH]c12	-13%
93	CCCCc1ccc(NC(=O)COc2ccc(C(=O)Nc3ccccc3C)cc2)cc1	-8%
94	CCOc1cc2c(C)cc(=O)oc2cc1Cl	-12%
95	O=C1C2Sc3[nH]c(=O)sc3C(c3ccccc3)C2C(=O)N1c1ccccc1 (stereo unspecified)	-17%
96	C=C(C)CNC(=S)N/N=C/c1ccc(N2CCOCC2)cc1	?
97	Brc1ccc2ncc(Br)cc2c1	-3%
98	Cc1cccnc1NC(=O)C1CCN(S(=O)(=O)c2ccc3c(c2)CCC(=O)N3)CC1	-1%
99	CC1CCN(CCOc2cc(Cl)ccc2Cl)CC1	-9%
100	O=C(CSc1nc(-c2ccccc2)cc(C(F)(F)F)n1)NCc1ccco1	-8%

With a hit mark in HPGD inh, among the entries above:
item	canonical_smiles	HPGD inh
12	S=c1[nH]nc(COc2ccccc2)n1/N=C/c1cccnc1	14µM*
31	O=C(NCCN1CCOCC1)c1cc2sccc2n1Cc1ccc(Cl)cc1	16µM*

(listing goes on)
item	canonical_smiles	HPGD inh
101	CN(C)c1ncc2ncc(=O)n(Cc3cccs3)c2n1	?
102	O=C(O)CCC(=O)N1N=C(c2ccccc2)CC1c1ccc2nccnc2c1 (stereo unspecified)	2%
103	COc1c2occc2c(OC)c2c(=O)cc(C(F)(F)C(F)(F)F)oc12	-19%
104	Cn1c(=O)[nH]c(=O)c2[nH]c(CN3CCN(C(=O)c4ccco4)CC3)nc21	0%
105	CN(C)CCC[C@@H]1c2ccccc2Oc2ccc(C(F)(F)F)cc21	-2%
106	O=C(NCCN1CCCCC1)Nc1ccc(F)c(Cl)c1	-5%
107	O=C(CN1CCCCC1)NCCNc1ccc(C(F)(F)F)cc1[N+](=O)[O-]	-6%
108	COc1ccc(CCNC(=O)C2CCCN(Cc3nc(-c4ccccc4C)oc3C)C2)cc1OC (stereo unspecified)	-15%
109	CCN1CC2([N+](=O)[O-])C=CC(=O)C([N+](=O)[O-])(C1)C2CC(=O)c1ccccc1 (stereo unspecified)	-22%
110	CCOC(=O)/C=c1\s/c(=C(\C#N)C(=O)NC)n(-c2ccccc2)c1=O	-13%
111	Cn1c(CNS(=O)(=O)c2ccc(Cl)cc2)n[nH]c1=S	-10%
112	Cn1cccc1Cc1nnc(SCC(=O)Nc2nccs2)n1CCc1ccccc1	-6%
113	COC(=O)CNC(=O)Cn1ccc2ccccc2c1=O	-7%
114	COc1cc(NC(=O)CSCC(=O)Nc2cccc(C(F)(F)F)c2)c(Cl)cc1Cl	?
115	COc1ccc(C2CC(=O)C=C(NNS(=O)(=O)c3ccc(C)cc3)C2)cc1 (stereo unspecified)	-16%
116	COc1cccc(NC(=O)CN2CCN(c3ccc(F)cc3)CC2)c1	-3%
117	CCC(C)(NC(=O)c1ccccc1)C(=O)O (stereo unspecified)	2%
118	CCOC(=O)c1cc(C(C)(C)C)oc1CN	5%
119	Cc1ccc(C(C)C)c(OCC(=O)Nc2ccccc2N2CCN(C)CC2)c1	-25%
120	Cc1occc1C(=O)Nc1ccc2c(c1)OCCO2	16µM*
121	O=C(NCCCNCc1ccccc1)c1ccc(/C=N/O)nc1	-9%
122	Cc1nn(CC(=O)NCc2ccccc2)c(C)c1[N+](=O)[O-]	-7%
123	CCOc1cccc(SCc2noc(C(=O)NC(C)C)c2C(=O)O)c1	-18%
124	COC(=O)CC1Oc2cc3oc4c5ccccc5oc(=O)c4c3cc2O1 (stereo unspecified)	-18%
125	O=C(c1ccco1)N1CCC2(CCCN(c3ccncc3)C2)CC1	-2%

item	canonical_smiles	HPGD inh
126	O=C(C(=O)N1CCc2ccccc2C1)c1cn(CC(=O)N2CCOCC2)c2ccccc12	-13%
127	CC(C)COC(=O)C1C(=O)CC(C)(O)C(C(=O)OCC(C)C)C1c1cccnc1 (stereo unspecified)	-1%
128	CCc1nc(N)c(C#N)c(-c2cccc3ccccc23)c1C	-24%
129	COc1ccc(NC(=O)CCCn2c(=O)c3sccc3n(Cc3cccc(C)c3)c2=O)cc1	-4%
130	CCN(CC)C(=O)c1sc(NC(=O)Cc2ccccc2)c(C#N)c1C	-27%

Screening data: PubChem, National Center for Advancing Translational Sciences (NCATS)
